Compound activity as filed in PubChem.
NPYLR7 agonist – activates Aedes aegypti NPYLR7 receptor; HEK293T NPYLR7/Galpha15, GCaMP6s calcium fluorescence; activation, % at 10 µM; hit rate 0.15% among 270,000; in the data active means activation above about 40%;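 further: 0% = vehicle and 100% = reference agonist at the receptor; some compounds past the cut are filed as inactive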
NPYLR7 agonist max-min – recorded beside NPYLR7 agonist, whose call it bears; activation, %; measured here: Max-Min RFU normalised activation; some inactives read as strong as hits;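 span of the calcium signal over five minutes; 0% = vehicle and 100% = native peptide agonist; compound fluorescence can raise it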
Numbers without * were called inactive; & = joins results of further samples. These rows are one share of the data, so the mix of outcomes need not match the whole.

Values run as follows: NPYLR7 agonist | NPYLR7 agonist max-min
Cn1nc(-c2cccnc2)c2c1NC(=O)CC2c1ccc2cccc(O)c2n1 (configuration not stated)
  12 | -7
CNC(=O)C1CCCN(S(=O)(=O)N2CCOCC2)C1 (configuration not stated)
  4 | -1
O=C(/C=C/N(c1ccccc1)c1ccccn1)C(F)(F)F
  0 | -1
O=C(NCc1ccccn1)c1cc(-c2ccccc2F)nc2cc(-c3ccccc3)nn12
  5 | 13
CC(C)CN(CC(=O)Nc1cc(-c2ccccc2)nn1-c1ccc(Cl)c(Cl)c1)C(=O)Nc1c(C(C)C)cccc1C(C)C
  23 | 18
O=C(O[C@H]1CN(C(=O)N2CCOCC2)[C@H]2CC[C@@H](N3CCOCC3)[C@@H]1C2)N1CCOCC1
  0 | 5
c1cncc(-c2noc(C3CCCN(Cc4ncc[nH]4)C3)n2)c1 (configuration not stated)
  14 | -3
Cc1ccccc1CC1SC(N)=NC1=O (configuration not stated)
  -4 | -6
CCC(C(=O)NCc1cccc(C(F)(F)F)c1)n1c(=O)n(-c2cccc(C)c2)c(=O)c2ccc(Cl)cc21 (configuration not stated)
  15 | 18
Cc1c(NC(=O)Cc2ccc(Cl)cc2)cccc1-c1nc2cccnc2s1
  0 | -2

Quoted from the results shown, 6 compounds:
Values run as follows: NPYLR7 agonist | NPYLR7 agonist max-min
Cn1nc(-c2cccnc2)c2c1NC(=O)CC2c1ccc2cccc(O)c2n1 (configuration not stated)
  12 | -7
CNC(=O)C1CCCN(S(=O)(=O)N2CCOCC2)C1 (configuration not stated)
  4 | -1
O=C(/C=C/N(c1ccccc1)c1ccccn1)C(F)(F)F
  0 | -1
O=C(NCc1ccccn1)c1cc(-c2ccccc2F)nc2cc(-c3ccccc3)nn12
  5 | 13
CC(C)CN(CC(=O)Nc1cc(-c2ccccc2)nn1-c1ccc(Cl)c(Cl)c1)C(=O)Nc1c(C(C)C)cccc1C(C)C
  23 | 18
O=C(O[C@H]1CN(C(=O)N2CCOCC2)[C@H]2CC[C@@H](N3CCOCC3)[C@@H]1C2)N1CCOCC1
  0 | 5

Exported with each value named: two of the compounds above.
> O=C(NCc1ccccn1)c1cc(-c2ccccc2F)nc2cc(-c3ccccc3)nn12
- NPYLR7 agonist: 5
- NPYLR7 agonist max-min: 13
> c1cncc(-c2noc(C3CCCN(Cc4ncc[nH]4)C3)n2)c1 (configuration not stated)
- NPYLR7 agonist: 14
- NPYLR7 agonist max-min: -3

(next part)
Values run as follows: NPYLR7 agonist | NPYLR7 agonist max-min
O=C(O)c1ccc(CSc2nc(Cl)cc(N3CCN(Cc4ccccc4)CC3)n2)cc1
  -6 | -15
CC(C)N1CCNC(=O)C1CC(=O)NCc1nnc2n1CCCCC2 (configuration not stated)
  20 | 7
O=C(NC(c1ccc(Cl)cc1)C1CC1)C1CCN(S(=O)(=O)c2ccccc2F)CC1 (configuration not stated)
  6 | 0
CCN(CC)CCCC(C)NC(=O)Cc1csc(NC(=O)CN(C(=O)c2ccc(Cl)cc2Cl)C2CC2)n1 (configuration not stated)
  -7 | -2
O=C(O)c1cccnc1CN1CCC[C@H]1CN1CCCC1
  2 | -1
CCN(CC)C(=O)Oc1ccc2c(ccn2Cc2cc3c(cc2Cl)OCO3)c1-c1cc(F)cc(F)c1
  20 | 5
COCCNC(=O)C1(C)CCCN(Cc2ccc(Cl)nc2)C1 (configuration not stated)
  6 | 2
CN(C)CCCNc1ncnc2c1c(-c1ccccc1)cn2-c1ccccc1
  -3 | -6
CN(C)CC1(O)CCCN(C(=O)CCc2nc3ccccc3[nH]c2=O)CC1 (configuration not stated)
  5 | 2
COc1ccccc1-c1cccc(-c2cccc(NC(=O)c3cc4ccccc4s3)c2)n1
  -4 | -11
Cc1cc(=O)[nH]c(-n2nc(C)cc2NC(=O)C2CCCC2)n1
  6 | 0
COC(=O)c1sc(N2C(=O)C(=O)C(=C(O)c3ccc(F)cc3)C2c2cccc(OC)c2)nc1C (configuration not stated)
  3 | 2
CCCCN(CC(=O)N1CC(=O)N(c2cccc(C)c2)C1)C(=O)NC(C)(C)C
  24 | 27
COc1ccccc1N1CCN(c2ccc(NC(=O)NC34CC5CC(CC(C5)C3)C4)cc2C(=O)NCCc2ccccc2)CC1
  -10 | -6
CN(Cc1ccc(N2CCOCC2)cc1)c1ncnc2sccc12
  6 | 4
CC(NC(=O)CC1Sc2ccc(Cl)cc2NC1=O)c1ccco1 (configuration not stated)
  10 | 7
CC(C)Nc1cc(-c2cccc(CN3CCOCC3)c2)ncn1
  -1 | 12
Cc1ccc(C(=O)Nc2c(N)nc(SCC(=O)Nc3ccccc3C)[nH]c2=O)cc1
  -10 | -5
Cn1nnc2c(Nc3ccc(Br)cc3F)ncnc21
  12 | 8
O=C(CSc1ncn[nH]1)NCc1n[nH]c(=O)c2ccccc12
  1 | -6
CCN1CC(c2nc3ccccc3n2Cc2ccccc2C)CC1=O (configuration not stated)
  3 | 14
Cc1ccc2c(c1)C(CC(=O)N(C)Cc1ccno1)C(=O)N2 (configuration not stated)
  29 | 12
COc1cc(C)c(NC(=O)c2sccc2S(=O)(=O)N2CCCCC2)cc1OC
  2 | 5
O=C(NCCc1ccccc1)C(C1CCCC1)N1CCN(C(=O)c2cccc(Cl)c2)CC1 (configuration not stated)
  -4 | -3
Cn1c2c(c(=O)n(C)c1=O)C(c1ccc(Br)cc1)C1C(=O)OCC1=N2 (configuration not stated)
  -3 | -6
CC(=O)N1CCCN(C(=O)CC(c2cccc(O)c2)c2ccccc2O)CC1 (configuration not stated)
  -1 | -5
CC(Cc1ccccn1)N(C)C(=O)c1ccc(CSc2ncccn2)o1 (configuration not stated)
  5 | 3
COCCNC(=O)C(NC(=O)c1cccc(C)c1)C1CCN(C(=O)c2ccccc2F)CC1 (configuration not stated)
  7 | 10
CC(=O)NC(=O)COC(=O)c1cc(-c2ccc(C)cc2)nc2ccccc12
  2 | 2
C=CCn1c(SCc2ccc(C(=O)OC)o2)nnc1-c1cccc(C)c1
  18 | 20
CCOC(=O)c1ccc(NC(=O)N(CC(=O)N(Cc2ccc3c(c2)OCO3)Cc2ccc(C)o2)CC(C)C)cc1
  1 | 6
CC1Oc2ccc(N)cc2CN(Cc2cc(F)cc(F)c2)C1=O (configuration not stated)
  25 | 9
N#Cc1ccc(CN2CCN(C(=O)c3ncoc3C3CCCO3)CC2=O)cc1 (configuration not stated)
  4&-5 | 1&-5
CCCN(Cc1ccncc1)C(=O)c1n[nH]c2c1CC(C)CC2 (configuration not stated)
  -2 | -4
CC(C)C(NC(=O)c1ccccc1Cl)C(=O)N1CCC(C(=O)c2ccccc2)CC1 (configuration not stated)
  3 | 4
CC1CC(Nc2ccccc2)=NC1(C)C (configuration not stated)
  10 | 7
COc1ccc(C(=O)NC(=O)COC(=O)Cc2csc(C)n2)cc1
  1 | -4
CCOC(=O)C1(Cc2cccc(OC)c2)CCN(Cc2ccc(NC(C)=O)cc2)CC1
  11 | 9
CC(C)CCn1c(=O)c2c(nc3n2CC(C)CN3c2ccc(Cl)cc2)n(C)c1=O (configuration not stated)
  2 | 9
C=C(C#N)CS(=O)(=O)c1ccc(C)cc1
  -10 | -12

Of the compounds above, these contain a cyano group.
Values run as follows: NPYLR7 agonist | NPYLR7 agonist max-min
N#Cc1ccc(CN2CCN(C(=O)c3ncoc3C3CCCO3)CC2=O)cc1 (configuration not stated)
  4&-5 | 1&-5
C=C(C#N)CS(=O)(=O)c1ccc(C)cc1
  -10 | -12

As entered above.
Value of CC(C)CCn1c(=O)c2c(nc3n2CC(C)CN3c2ccc(Cl)cc2)n(C)c1=O (configuration not stated) in NPYLR7 agonist: 2
Value of CC1CC(Nc2ccccc2)=NC1(C)C (configuration not stated) in NPYLR7 agonist max-min: 7
Value of CC(C)C(NC(=O)c1ccccc1Cl)C(=O)N1CCC(C(=O)c2ccccc2)CC1 (configuration not stated) in NPYLR7 agonist: 3
Value of COc1ccc(C(=O)NC(=O)COC(=O)Cc2csc(C)n2)cc1 in NPYLR7 agonist max-min: -4

Next part
Values run as follows: NPYLR7 agonist | NPYLR7 agonist max-min
CC(=O)c1cccc(NC(=O)c2oc3ccccc3c2CN(C)C)c1
  10 | 5
O=C(NCCc1ccccc1F)C1CCCCC1C(=O)N1CCc2c([nH]c3ccccc23)C1 (configuration not stated)
  -10 | -16
CC(CC(=O)NCc1cccnc1N1CCN(C)CC1)N1CCOCC1 (configuration not stated)
  -2 | -10
C=C(C)Cn1c(=O)c2c(nc3oc(-c4ccc(Cl)cc4)cn32)n(C)c1=O
  3 | 3
CN1CC(S(=O)(=O)c2ccccc2)=CC(S(=O)(=O)c2ccccc2)C1c1ccccc1 (configuration not stated)
  8 | 5
CCC(C)N(CC1CNCCO1)C(=O)Cc1ccc(OC)cc1 (configuration not stated)
  19 | 12
O=C1NC2(CCN(S(=O)(=O)c3ccc(F)cc3)CC2)Nc2cccc(Cl)c21
  6 | 10
O=C(Nc1cccc(C(=O)N2CCOCC2)c1)C1COc2ccccc2C1 (configuration not stated)
  0 | -2
COc1cc(-c2cc(C(=O)NC3CCc4ccccc43)c3ccccc3n2)cc(OC)c1OC (configuration not stated)
  0 | 9
O=C(Nc1ccc2c(c1)CCC2)c1cccnc1Nc1cccc(Cl)c1
  -9 | -14
CCOC(=O)c1sc(/C=C/c2nccn2C)nc1C
  -5 | -6
CCN(CC)C1=C(c2c(C)[nH]n(-c3ccc(F)cc3)c2=O)C(=O)N(CC(C)C)C1=O
  2 | 7
O=S(=O)(/C=C/C=C/Sc1ccccc1)c1ccccc1
  0 | -4
COCCCN(CC(=O)N(Cc1ccc(F)cc1)Cc1cccs1)C(=O)c1ccc2c(c1)OCO2
  -15 | -15
CN(C)CCN1C(c2ccccc2)=CC(=C2C(=O)N(C)C(=O)N(C)C2=O)C2=C1CCCC2
  -8 | -14
